# Compound activity from PubChem BioAssay.
# Arbovirus anti – antivirals against arbovirus infection, primary screen, cell-based, full library, 10K replicate subset. arbovirus infection cell-based antiviral screen. inhibition, % at 10 µM. actives 0.37% (n = 200,000);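 active means inhibition from about 30%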;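 further: bluetongue infection of BSR cells; cell survival read as ATP light after 72 h; 0% = infected wells without compound and 100% = uninfected wells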
# RecA splice inh – Mtb RecA intein splicing inhibitors, primary screen, biochemical, fluorescence, HTS; cell-free RecA intein splicing; inhibition, %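 (about 9 µM by stock and volumes)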; actives 0.75% (n = 290,000); AID 2221, 2009; in the data active means inhibition above about 30%; inconclusive means no clear call, values can overlap the other calls;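 further: 0% = vehicle wells and 100% = reference inhibitor control wells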
# Target sequence (P9WHJ3 whole entry, looked up, canonical isoform): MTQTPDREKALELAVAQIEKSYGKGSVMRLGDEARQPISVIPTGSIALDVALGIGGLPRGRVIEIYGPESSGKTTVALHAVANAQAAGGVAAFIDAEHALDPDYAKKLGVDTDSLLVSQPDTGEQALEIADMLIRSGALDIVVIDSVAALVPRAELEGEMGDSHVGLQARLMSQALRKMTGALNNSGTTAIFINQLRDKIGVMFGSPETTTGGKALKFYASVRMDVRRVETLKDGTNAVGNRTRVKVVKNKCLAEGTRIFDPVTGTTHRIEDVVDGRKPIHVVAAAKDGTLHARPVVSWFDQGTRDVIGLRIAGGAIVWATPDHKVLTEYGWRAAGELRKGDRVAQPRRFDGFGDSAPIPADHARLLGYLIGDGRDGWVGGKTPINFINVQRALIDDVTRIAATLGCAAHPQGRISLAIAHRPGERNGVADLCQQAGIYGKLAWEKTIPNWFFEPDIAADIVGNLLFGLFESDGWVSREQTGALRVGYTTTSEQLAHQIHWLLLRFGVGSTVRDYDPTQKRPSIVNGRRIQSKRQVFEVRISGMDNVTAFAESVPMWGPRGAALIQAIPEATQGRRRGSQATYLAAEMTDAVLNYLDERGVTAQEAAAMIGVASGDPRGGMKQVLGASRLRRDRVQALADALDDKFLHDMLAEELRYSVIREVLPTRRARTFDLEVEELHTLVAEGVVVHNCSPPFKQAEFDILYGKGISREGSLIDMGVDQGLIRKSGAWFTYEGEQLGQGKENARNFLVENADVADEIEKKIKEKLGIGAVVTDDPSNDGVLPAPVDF
# Mtb bLac sens – beta-lactam sensitization of Mtb H37Rv, H37Rv; AID 434955, 2010; inhibition, % at 25 µM; actives 0.27% (n = 330,000); M. tuberculosis H37Rv growth with meropenem, percent inhibition; hits of this screen are not shown here;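 active means about 74% or more and at least 40 points above the plate without the antibiotic, then above 30% in a dose series; inconclusive means first-round hits that could not be retested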;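 further: growth measured after seven days incubation then overnight dye step; 0% = bacteria only wells and 100% = bacteria with antibiotic; twin plates without the antibiotic show which effects depend on it; some results filed as inactive read as strong as hits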
# Mtb growth – M. tuberculosis H37Rv growth inhibitors, H37Rv strain (AID 1626); inhibition, % at 10 µM, or IC50 in µM where a hit was titrated; M. tuberculosis H37Rv growth inhibition; higher % means a stronger effect; actives 0.95% (n = 220,000);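 active means confirmed in a dose series; inconclusive means inhibition above 80% but not taken into the dose series; inactive means below 80% or under 30% at every dose of the series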;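 further: bacteria incubated seven days before Alamar blue readout; 0% = bacteria only wells and 100% = bacteria with antibiotic wells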
# YopH inh – YopH tyrosine phosphatase inhibitors, primary screen, biochemical, fluorescence Ex485/Em525; actives 0.16% (n = 140,000); AID 898, 2007; inhibition, %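 (about 10 µM by stock and volumes)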;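 active means inhibition of 50% or more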;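 further: controls were vehicle for no effect and minimum signal wells for full effect; inactives centre near -20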
# Arbovirus anti repeat – also measured in Arbovirus anti; calls as there; inhibition, %; measured here: 10K subset replicate screen; many hits read low in the repeat;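 first of two repeat runs on a subset; 0% = infected and 100% = uninfected wells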
# An asterisk follows results filed as active; ? = inconclusive; / = not tested or not shown. These rows are one share of the data; rates above refer to the full screens.
SMILES,Arbovirus anti,RecA splice inh,Mtb bLac sens,Mtb growth,YopH inh,others
Oc1ccc2cc(Br)ccc2c1CN1CCCC1,23,-1.9,-14,22µM*,/,
Cc1cc(NC(=S)Nc2cccc3ccccc23)n[nH]1,6,3.7,3,6%,/,
CC(C)(Oc1ccc(Cl)cc1)C(=O)OCn1nnc2ccccc2c1=O,8,-2.4,99,63%,-37,
CCCCOc1ccc(C(=O)N/C(=C\c2cccc([N+](=O)[O-])c2)C(=O)OC(C)C)cc1,1,1.2,5,3%,-8,
Cc1cc(C)c(NS(=O)(=O)c2ccc(NC(=O)/C=C/C(=O)O)cc2)c(C)c1,-8,8.0,0,3%,-21,
COc1ccc(CCNC(=O)C2(c3ccccc3)CC2)cc1,/,2.5,1,/,/,
COc1ccc(Nc2ncnc3sc(-c4ccccc4)cc23)cc1OC,1,-9.7,8,12%,-31,
Cc1cccc2sc(NNC(=O)c3cc(=O)c4ccccc4o3)nc12,3,1.5,-10,/,/,
Cc1ccccc1NC(=S)N(Cc1ccco1)C(C)c1cccs1 (stereo not given),1,10,-2,6%,/,
CSc1nnc2n(-c3ccc(C)cc3)c(=O)c3c4c(sc3n12)COC(C(C)C)C4 (stereo not given),-16,-0.5,-4,8%,/,Arbovirus anti repeat=-10
COc1ccc(CNC(=O)CC2(CC(=O)O)CCCCC2)cc1,/,-4.2,-10,/,/,
Cc1cc(NC(=O)Cn2nc([N+](=O)[O-])c(Br)c2C)no1,1,-1.5,-4,0%,/,
CC(C)NC(=O)CCNC(=O)c1ccc(F)cc1,4,/,-3,0%,-44,
O=S(=O)(ON(c1ccccc1)S(=O)(=O)c1ccccc1)c1ccccc1,13,2.0,5,-2%,-37,
O=C(NCC1CCCCC1)c1ccc(=O)[nH]c1,/,0.4,2,/,/,
Cc1ccsc1C1CC(=O)OC2=C1C(=O)CC(C)(C)C2 (stereo not given),-1,-1.4,-6,4%,/,
CC(C)CC(=O)NC(=S)Nc1ccc(NC(=O)c2cccs2)cc1,-4,-0.7,-4,-3%,-25,
Cc1c(C(=O)N2CCCC2)oc2c1-c1nn(CC(=O)NCCCN3CCCCC3C)cc1CC2 (stereo not given),/,-0.1,-12,/,/,
COCc1cc(=O)[nH]c(-c2ccccc2OC(F)(F)F)n1,/,-1.9,-11,0%,/,
O=C(NCC1CCCO1)c1cccs1 (stereo not given),-2,1.5,/,0%,-26,
CCCn1c(O)c(N=NC(=O)c2cccnc2)c2cc(Br)ccc21,/,4.8,52,75%,/,
Cc1ccc(OCC(=O)Nc2ccc(N3CCN(S(C)(=O)=O)CC3)cc2)cc1,9,0.1,2,-4%,/,
CCc1ccc(N(CC(=O)NC2CCCC2)C(=O)CCC(=O)Nc2ccccn2)cc1,/,0.5,-3,/,/,
CCOc1cc(C(=O)N/N=C/c2ccsc2)cc(OCC)c1OCC,-10,0.1,1,0%,-11,
O=C(CCc1ccccc1)NNC(=S)Nc1ccc(F)cc1,4,-1.0,-8,1%,/,

# The list goes on; the last three above are carried over.
SMILES,Arbovirus anti,RecA splice inh,Mtb bLac sens,Mtb growth,YopH inh,others
CCc1ccc(N(CC(=O)NC2CCCC2)C(=O)CCC(=O)Nc2ccccn2)cc1,/,0.5,-3,/,/,
CCOc1cc(C(=O)N/N=C/c2ccsc2)cc(OCC)c1OCC,-10,0.1,1,0%,-11,
O=C(CCc1ccccc1)NNC(=S)Nc1ccc(F)cc1,4,-1.0,-8,1%,/,
CN(C)CCn1c2c(c(SCC(=O)Nc3ccccc3)nc1=O)CCCC2,/,-2.4,-1,/,/,
O=C(Nc1ccc(N2CCOCC2)cc1)c1ccc([N+](=O)[O-])cc1,-1,-0.4,-2,4%,/,
Cc1cc(OCC(=O)NC2CC2)c2c(C)cc(=O)oc2c1,/,-0.9,3,/,/,
Cc1cc(C)c2c(=O)n(CC(=O)Nc3ccc(Cl)cc3)sc2n1,/,-1.2,32,?,/,
CC(=O)C1=C(O)C(=O)N(Cc2cccnc2)C1c1ccccc1 (stereo not given),9,0.8,-2,-4%,-4,
Nc1nc2ccc(N3CCOCC3)cc2s1,-2,/,-2,-3%,10,
CC(=O)Nc1ccc(N2C(=O)CC(N3CCSCC3)C2=O)cc1 (stereo not given),2,-1.2,-2,-7%,/,
COc1ccc(Nc2nc(N)nc(CN3CCN(c4ccccn4)CC3)n2)cc1,-12,-0.3,70,5%,-15,
Cc1csc(NC(=O)CSc2nnc(NC(=O)C3CC(=O)N(c4ccccc4)C3)s2)n1 (stereo not given),3,-3.8,1,6%,-8,
CCN(CC)C(=O)Cn1cc(S(=O)(=O)CC(=O)Nc2cc(OC)ccc2OC)c2ccccc21,/,-3.3,-4,/,/,
N#Cc1ccc(S(=O)(=O)N2CCc3[nH]c4ccc(F)cc4c3C2)cc1,/,2.6,-10,7%,/,
COc1ccccc1N1CCN(C(=O)CCc2nnc3ccc(N4CCC(C)CC4)nn23)CC1,/,1.9,12,/,/,
CC(C)C(=O)Nc1ccc(NC(=S)NC(=O)c2cc3ccccc3o2)cc1,0,1.6,-5,2%,/,
COC[C@]12CN(C)C3C4[C@H](OC)[C@H]1C3([C@@H](OC)C[C@H]2O)[C@@H]1C[C@@]2(O)[C@H](OC(=O)c3ccccc3)[C@@H]1[C@]4(OC(C)=O)[C@@H](O)[C@@H]2OC,/,6.1,-9,-21%,/,
CC(C)(C)S(=O)(=O)c1cnc(-c2ccc(Cl)cc2)nc1N,/,/,0,-5%,/,
COc1cccc(OC)c1NC(=O)CN1CCN(C)CC1,/,-2.0,-2,/,/,
Cc1ccc(SCC(=O)NCCSC(C)(C)C)cc1,8,11,3,0%,-21,
COc1ccc(OC)c(-c2cc(C(=O)NCc3ccco3)no2)c1,-6,-0.1,4,0%,-33,
O=C(NC1CCCCCCC1)c1c(O)c2ccccc2[nH]c1=O,-9,-0.4,16,-4%,-3,Arbovirus anti repeat=-2
Nc1cc(=O)[nH]c(SCC(=O)Nc2cc(S(=O)(=O)N3CCOCC3)ccc2Cl)n1,2,0.3,-3,-11%,/,
O=C(CNC1CCCCC1)Nc1cc(S(=O)(=O)N2CCOCC2)ccc1Cl,11,1.1,-4,4%,/,
Cc1ccc(NC(=O)N2CCOCC2)c(C)c1,-1,-1.9,-6,-4%,6,
COc1ccccc1CNC(=O)CSc1nn2c(=O)c(C(C)(C)C)nnc2s1,20,6.2,-5,2%,/,
O=c1c2cn[nH]c2[nH]c(=S)n1-c1ccccc1F,-1,-0.8,-11,4%,-55,
COc1ccc(NC(=S)N(Cc2ccc(N(C)C)cc2)Cc2ccco2)cc1,7,1.7,1,7%,-11,
# (next part)
SMILES,Arbovirus anti,RecA splice inh,Mtb bLac sens,Mtb growth,YopH inh,others
Cc1cc(/C=N/n2c(COc3ccccc3C)nc3ccccc3c2=O)c(O)c([N+](=O)[O-])c1,-27,25,14,44%,-4,
CCc1ccccc1-n1c(SCC(=O)N2CCCC2)nc2[nH]ncc2c1=O,7,1.7,-3,-11%,/,
CC(C)(C)C(=O)CN1C2=NCCCN2c2ccccc21,/,-4.4,-4,/,/,
CCOC(=O)CSC(C)C(=O)Nc1nnc(C(C)C)s1 (stereo not given),6,1.1,-8,0%,/,
O=C1C2CCCN2C(=O)N1CCCCN1CCN(CCO)CC1 (stereo not given),4,1.1,-1,-6%,-24,
CC(=O)/C(C(=N)N1CCN(C(c2ccccc2)c2ccccc2)CC1)=C(\C)O,-1,0.7,-10,-7%,-35,Arbovirus anti repeat=-4
COC(=O)c1ccccc1NC(=S)N1CCN(c2ccccn2)CC1,5,2.7,1,3%,/,
FC(F)(F)c1ccc(C2Nc3cccc4cccc(c34)N2)cc1,-8,/,/,0%,/,
COc1ccc2[nH]cc(S(=O)(=O)c3ccc(C)cc3)c2c1,5,3.1,-2,6%,/,
CC(=O)/C(=C/c1ccccc1)C(=O)Nc1ccccc1C,-31,-0.6,13,-3%,/,
CN(CC(CC(=O)Nc1nncs1)c1ccccc1)S(=O)(=O)c1ccccc1 (stereo not given),12,4.4,-7,-1%,-42,Arbovirus anti repeat=6
O=C(CN(CCc1ccccc1)C(=O)c1csnn1)NCc1ccc(F)cc1,/,2.1,0,/,/,
CC(C)(C)NC(=O)CN(C(=O)CNC(=O)c1cccs1)c1ccccc1F,/,-5.6,2,/,/,
CCn1c(SCC(=O)N/N=C/C(C)=C/c2ccco2)nnc1-c1ccccc1,0,-1.5,5,0%,7,
CCOc1ccc(N=CC2=C(O)CC(C)(C)CC2=O)cc1,2,-3.6,99,>100µM*,16,Arbovirus anti repeat=-2
C/C(=N\OCc1cccc(C(=O)O)c1)c1ccc(Cl)cc1,/,2.1,-1,5%,/,
CCNS(=O)(=O)c1ccc(CCC(=O)NCc2ccccn2)cc1,/,-1.5,-7,/,/,
COCCNC(=O)CCCCCNS(=O)(=O)c1ccc(C)cc1,-3,0.3,2,-5%,-15,
COc1ccc(C(=O)Nc2ccc3c(c2)OCO3)cc1OC,-7,0.0,-12,4%,-48,
Cc1nn(Cc2ccc([N+](=O)[O-])cc2)c(=O)n1-c1ccccc1,5,0.1,-4,-9%,-10,
O=C(CSc1nc2ccccc2o1)Nc1cc(C(F)(F)F)ccc1N1CCOCC1,5,2.1,-9,-14%,9,
CC(C)=CC(=O)OCC(=O)Nc1nc(C)c(Cl)cc1Cl,-2,0.6,-4,-2%,-19,
CC(N=C(NS(=O)(=O)c1ccc(Cl)cc1)c1ccccc1)C(=O)O (stereo not given),8,1.2,4,-5%,-7,
COc1ccc(S(=O)(=O)N(CCc2ccccc2)CC(=O)O)cc1,0,0.3,7,-3%,-21,
Cc1ccc(NC(=O)c2cc(S(=O)(=O)N3CCOCC3)c(Br)s2)cc1,17,-1.2,-14,2%,-10,
# The list goes on:
SMILES,Arbovirus anti,RecA splice inh,Mtb bLac sens,Mtb growth,YopH inh,others
CCOC(=O)c1c(C)[nH]c(C(=O)OCc2ccc(F)cc2)c1C,/,0.1,-3,/,/,
CCOC(=O)c1ccc(NCc2ccc(N(C)C)cc2)cc1,-8,-3.2,99,>100µM*,-18,
COc1ccc(NC(=S)N2CCN(C(=O)c3ccco3)CC2)cc1,/,-0.2,-5,/,/,
Cc1cc(C)nc(NC(=O)CSc2ncccn2)n1,19,-3.9,-10,-4%,/,
O=C(NCc1ccco1)c1ccc(Cl)c(S(=O)(=O)N2CCc3ccccc32)c1,30,10,-6,4%,-22,
CC1CCN(C(=O)CSc2nc3ccccc3[nH]2)CC1,3,-0.6,-2,-3%,-2,
Clc1ccc(-n2c(SC/C=C/c3ccccc3)nnc2-c2cccnc2)cc1,-35,7.0,?,6%,-7,
CCN(C(=O)COC(=O)c1cccc(S(=O)(=O)N2CCOCC2)c1)C1CCS(=O)(=O)C1 (stereo not given),/,-3.0,-11,/,/,
Cc1ccc(-c2c(C)sc(NC(=O)C3C4CCC(O4)C3C(=O)O)c2C(=O)OC(C)C)cc1 (stereo not given),1,2.7,-8,-12%,-27,
Cc1c(C(=O)NCc2nnc(-c3ccccc3)o2)oc2c(F)cccc12,/,-0.4,-5,/,/,
CC(=O)N1c2c(cc(Br)cc2S(=O)(=O)NCc2ccc(C)cc2)CC1C (stereo not given),/,1.4,6,/,/,
CC1CC(=O)N(CC(=O)Nc2ccc(Br)cc2)c2ccccc2S1(=O)=O (stereo not given),/,1.9,0,/,/,
O=C1CCN(S(=O)(=O)c2ccccc2)N1,8,43*,-1,/,-32,
CC(Nc1nc(-c2ccc(F)cc2)cs1)c1nc2cc(Cl)c(Cl)cc2n1CCOCCO (stereo not given),/,5.9,-3,-4%,/,
c1ccc(-c2nc(CSc3nnnn3-c3ccccc3)cs2)cc1,9,20,1,2%,-4,Arbovirus anti repeat=1
Cc1ccc(C2CCN(C(=S)NC(C)(C)C)C2)cc1 (stereo not given),1,2.4,-5,2%,/,
O=C(CCC(=O)N/N=C/c1ccco1)N/N=C/c1ccco1,/,0.5,-7,-17%,/,

# A draw from above in order of heavy-atom count, ascending:
SMILES,Arbovirus anti,RecA splice inh,Mtb bLac sens,Mtb growth,YopH inh,others
O=c1c2cn[nH]c2[nH]c(=S)n1-c1ccccc1F,-1,-0.8,-11,4%,-55,
CCOC(=O)CSC(C)C(=O)Nc1nnc(C(C)C)s1 (stereo not given),6,1.1,-8,0%,/,
CC(=O)/C(=C/c1ccccc1)C(=O)Nc1ccccc1C,-31,-0.6,13,-3%,/,
CCOC(=O)c1ccc(NCc2ccc(N(C)C)cc2)cc1,-8,-3.2,99,>100µM*,-18,
COc1ccc(NC(=S)N2CCN(C(=O)c3ccco3)CC2)cc1,/,-0.2,-5,/,/,
O=S(=O)(ON(c1ccccc1)S(=O)(=O)c1ccccc1)c1ccccc1,13,2.0,5,-2%,-37,
